D2 ag: agonists of human D2 dopamine receptor (beta-arrestin) | DiscoveRx PathHunter D2 beta-arrestin, luminescence, 90 min; 100% = 57 uM dopamine signal | activation, % (test concentration not listed) | actives 0.084% (n = 360,000) | AID 624465; in the data active = activation above about 40%; inconclusive = about 15% to 40%; inactive = below about 15%; note: compound concentration not given in the record; the text of the record calls up to 30% inactive
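DiscoveRx PathHunter D2 beta-arrestin cells (2,100/well) attached overnight, then compound-stimulated 90 min at 37 C in HBSS/10 mM HEPES/0.1% Tween-20 buffer; beta-galactosidase complementation read by luminescence after 1 h at ambient temperature. Dopamine 57 uM final (EC100) as control.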
PINK1 expr mod: modulators of PINK1 expression; PINK1 immunofluorescence, high-content cytometry, 24 h; Potency, µM (titrated, usually from 76.6 µM), inactives show at the highest dose activation (PINK1 increase), hits mostly activators; actives 0.2% (n = 410,000); active = well fitted activation curve with a large enough effect; inconclusive = small, poorly fitted or top-dose-only effect; inactive = flat fitted curve, though single readings scatter; cell line not stated here;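 note: potency is the fitted concentration of half-maximal effect; % of control where 0% means no effect; nearly all actives have a fitted effect of over 65% in size; a mitochondrial uncoupler was the plate control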
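Measures PINK1 amount and localization on or inside mitochondria by immunofluorescence. Stable cells get compounds at 5 concentrations for 24 hours before fixation and staining; CCCP controls included.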
CtBP-E1A blk: blocks the CtBP interaction with E1A; AlphaScreen GST-E1A/His-CtBP binding, 1536-well; stronger effect = lower value; control for the full effect not named in the record; activity change, % (concentration not given with the values); actives 0.49% (n = 340,000); in the data active means activity change below about -65%; inconclusive means about -30% to -65%; inactive means above about -30%; note: % is set by controls: 0 for no effect and ±100 for the full control effect
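In 5 uL wells, 23 nL compound meets equimolar GST-E1A and His-CtBP (5X stock 125 nM each) for 2 h, 37 °C. Beads (5X, 50 ug/mL) then 1 h, 37 °C, dark.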
D2 potentiator: potentiates the human D2 dopamine receptor allosterically | P14416 | DiscoveRx D2 beta-arrestin cells, luminescence, 90 min; 100% = 57 uM dopamine signal | potentiation, % (no concentration beside the values) | actives 0.23% (n = 360,000); active = potentiation of 50% or more; inconclusive = 30% to 50%; inactive = 30% or less;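 note: compound concentration not given in the record; tested on top of an EC20 dose of dopamine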
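PathHunter D2 cells, attached overnight at 37 deg C, received compound in DMSO plus dopamine at EC20 (50 nM final) for 90 min at 37 deg C. Beta-arrestin recruitment was read as luminescence after 1 h with detection reagent at ambient temperature.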
TRPML1 ag: activates the human TRPML1 channel; activation, % (concentration not given with the values); actives 0.12% (n = 410,000); AID 624414; TRPML1-expressing cells, Ca2+ dye fluorescence, FDSS; host cell line not named in the record; reference of the full effect not given here; Q9GZU1; in the data active = activation above about 50%; inconclusive = about 30% to 50%; inactive = below about 30%; note: 0% is about no effect; the text of the record puts the active cut at 80%
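Cells: TRPML1-DL, 1X Tet inducer, ~16 h at 37 degrees C/5% CO2. Dye: ABD Ca8 no-wash + quencher, 45-90 min RT. Read: 10 s baseline, compound add, 110 s agonist phase; 54-4 EC80 (4uM final), 110 s antagonist phase.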
Six1-Eya2 inh: Six1/Eya2 interaction inhibition | Q15475+O00167 | AlphaScreen GST-Six1/His-Eya2 binding, biochemical; stronger effect = lower value; control for the full effect not named in the record | activity change, % (concentration not given with the values) | actives 0.56% (n = 360,000); in the data active = activity change below about -65%; inconclusive = about -30% to -65%; inactive = above about -30%; note: % is set by controls: 0 for no effect and ±100 for the full control effect
Target sequence (O00167 whole entry, looked up): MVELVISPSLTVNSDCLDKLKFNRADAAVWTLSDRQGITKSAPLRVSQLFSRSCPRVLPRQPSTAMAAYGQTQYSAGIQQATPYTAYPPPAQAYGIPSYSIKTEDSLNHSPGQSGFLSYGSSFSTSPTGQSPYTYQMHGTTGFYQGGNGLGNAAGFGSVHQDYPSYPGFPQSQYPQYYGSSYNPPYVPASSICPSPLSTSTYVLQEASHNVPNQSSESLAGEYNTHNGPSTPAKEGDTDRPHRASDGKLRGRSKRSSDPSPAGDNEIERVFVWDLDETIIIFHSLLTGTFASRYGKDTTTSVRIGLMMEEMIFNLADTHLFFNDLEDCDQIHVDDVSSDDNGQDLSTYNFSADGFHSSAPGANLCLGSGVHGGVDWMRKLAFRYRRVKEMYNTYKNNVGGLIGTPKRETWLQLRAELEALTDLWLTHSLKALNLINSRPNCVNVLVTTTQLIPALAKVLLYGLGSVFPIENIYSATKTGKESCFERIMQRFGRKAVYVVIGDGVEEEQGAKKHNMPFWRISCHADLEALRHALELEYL
Target sequence (Q15475 whole entry, looked up): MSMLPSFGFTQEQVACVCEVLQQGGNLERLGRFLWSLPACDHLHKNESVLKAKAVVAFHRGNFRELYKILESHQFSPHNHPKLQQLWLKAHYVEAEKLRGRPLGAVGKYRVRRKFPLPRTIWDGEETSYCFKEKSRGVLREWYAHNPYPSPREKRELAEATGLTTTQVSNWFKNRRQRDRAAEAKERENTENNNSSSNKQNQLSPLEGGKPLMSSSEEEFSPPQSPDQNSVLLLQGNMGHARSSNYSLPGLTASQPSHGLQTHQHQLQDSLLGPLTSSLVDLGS
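Six1/Eya2 binding was read as AlphaScreen signal after compounds were pinned into GST-Six1 plus His-tagged Eya2 (5X stock 250/500 nM) in pH 8.0 Tris/NaCl/TCEP buffer, beads added, then incubated 1 h, 37 C, dark.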
Starred values were filed as active, the others as inactive; ? = inconclusive; . = not tested or not shown; [ ] = remark or other dose.

SMILES	D2 ag	PINK1 expr mod	CtBP-E1A blk	D2 potentiator	TRPML1 ag	Six1-Eya2 inh
O=C(/C=C/c1ccccc1)Nc1ccc2c(c1)OCCO2	7.1	-0.6%	0	-11	-0.9	-4
Cc1ccc(NC(=S)NNc2ccc(C(=O)O)cc2[N+](=O)[O-])cc1C	-1.6	1.3%	-3	-18	-0.7	-29
Cc1ccccc1OCCC(=O)OCC(=O)Nc1c(F)cccc1F	-4.0	-1.5%	2	-4	-0.4	0
C[C@H](CO)N1C[C@H](C)[C@@H](CN(C)C(=O)Nc2ccc(C(F)(F)F)cc2)Oc2ccc(NC(=O)Nc3ccc4c(c3)OCO4)cc2C1=O	0.2	1.4%	-12	8	-0.2	-5
CC(C)CCNC(=O)C1(c2cccs2)CCOCC1	-3.9	0.0%	4	0	.	1
OCCCc1nc2ccccc2[nH]1	0.8	-1.8%	11	4	0.0	-17
CC(C)c1cccc(C(C)C)c1NC(=O)CN(C)C1CCS(=O)(=O)C1 (configuration not stated)	-5.2	-0.1%	12	-6	0.2	-5
Cc1ccc(NS(=O)(=O)c2ccc(C(=O)N3CCC3)cc2)cc1	4.5	2.1%	4	-3	0.1	-2
COC(=O)Cn1c2ccc(C)cc2c2nc(C)sc21	-0.8	0.1%[38.3 µM]	4	-4	2.0	-2
CNC(=O)c1nc(C)n(-c2ccc(Cl)cc2Cl)n1	-2.3	0.6%	8	-7	-0.1	5
CCc1nnc(NC(=O)CN2CCCC(C)C2)s1 (configuration not stated)	-4.4	-1.3%	.	-11	-0.1	0
CC(C)OC(=O)c1c2c(n3ccccc13)C(=O)c1ccccc1C2=O	?	11%	-10	28	21	-17
CC1CCCN(C(=O)c2ccc3c(c2)OCO3)C1 (configuration not stated)	-7.2	-0.8%	-22	-13	1.0	-8
Cc1cccc(NC(=O)c2ccc([N+](=O)[O-])cc2Cl)n1	4.9	0.7%	-16	11	0.1	-14
CNNC(=O)C(C)NC(=O)c1ccc(Br)cc1 (configuration not stated)	-1.4	?	0	-3	0.5	3
CCOC(=O)C1CCCN(C(=O)c2cc(F)cc(F)c2)CC1 (configuration not stated)	-4.4	-0.5%	4	-5	0.1	5
Cc1nc2c(-c3ccccc3)c(C)[nH]n2c(=O)c1Cl	0.3	-4.6%	0	-17	2.7	-2
Cc1cc(C)cc(NC2=C(N)C(=O)c3ccccc3C2=O)c1	8.0	2.8%	?	-6	5.0	-70*
CSCC[C@H](NC(=O)N1CCn2c1nc1ccccc12)C(=O)N1CCCCC1	2.0	0.5%	-1	-9	1.0	0
C[C@@H]([C@@H](O)c1ccccc1)N(C)C(=O)C(N)Cc1ccccc1 (some centres not stated)	-1.4	-0.3%	-1	-6	-0.3	0

Not a retest: an excerpt of the list.
SMILES	D2 ag	PINK1 expr mod	CtBP-E1A blk	D2 potentiator	TRPML1 ag	Six1-Eya2 inh
Cc1ccccc1OCCC(=O)OCC(=O)Nc1c(F)cccc1F	-4.0	-1.5%	2	-4	-0.4	0
C[C@H](CO)N1C[C@H](C)[C@@H](CN(C)C(=O)Nc2ccc(C(F)(F)F)cc2)Oc2ccc(NC(=O)Nc3ccc4c(c3)OCO4)cc2C1=O	0.2	1.4%	-12	8	-0.2	-5
CC(C)CCNC(=O)C1(c2cccs2)CCOCC1	-3.9	0.0%	4	0	.	1
OCCCc1nc2ccccc2[nH]1	0.8	-1.8%	11	4	0.0	-17
CC(C)c1cccc(C(C)C)c1NC(=O)CN(C)C1CCS(=O)(=O)C1 (configuration not stated)	-5.2	-0.1%	12	-6	0.2	-5
Cc1ccc(NS(=O)(=O)c2ccc(C(=O)N3CCC3)cc2)cc1	4.5	2.1%	4	-3	0.1	-2
COC(=O)Cn1c2ccc(C)cc2c2nc(C)sc21	-0.8	0.1%[38.3 µM]	4	-4	2.0	-2
CNC(=O)c1nc(C)n(-c2ccc(Cl)cc2Cl)n1	-2.3	0.6%	8	-7	-0.1	5
CCc1nnc(NC(=O)CN2CCCC(C)C2)s1 (configuration not stated)	-4.4	-1.3%	.	-11	-0.1	0
CC(C)OC(=O)c1c2c(n3ccccc13)C(=O)c1ccccc1C2=O	?	11%	-10	28	21	-17
CC1CCCN(C(=O)c2ccc3c(c2)OCO3)C1 (configuration not stated)	-7.2	-0.8%	-22	-13	1.0	-8
Cc1cccc(NC(=O)c2ccc([N+](=O)[O-])cc2Cl)n1	4.9	0.7%	-16	11	0.1	-14
CNNC(=O)C(C)NC(=O)c1ccc(Br)cc1 (configuration not stated)	-1.4	?	0	-3	0.5	3
CCOC(=O)C1CCCN(C(=O)c2cc(F)cc(F)c2)CC1 (configuration not stated)	-4.4	-0.5%	4	-5	0.1	5
Cc1nc2c(-c3ccccc3)c(C)[nH]n2c(=O)c1Cl	0.3	-4.6%	0	-17	2.7	-2
Cc1cc(C)cc(NC2=C(N)C(=O)c3ccccc3C2=O)c1	8.0	2.8%	?	-6	5.0	-70*
CSCC[C@H](NC(=O)N1CCn2c1nc1ccccc12)C(=O)N1CCCCC1	2.0	0.5%	-1	-9	1.0	0
C[C@@H]([C@@H](O)c1ccccc1)N(C)C(=O)C(N)Cc1ccccc1 (some centres not stated)	-1.4	-0.3%	-1	-6	-0.3	0

Later entries:
SMILES	D2 ag	PINK1 expr mod	CtBP-E1A blk	D2 potentiator	TRPML1 ag	Six1-Eya2 inh
Cc1onc(-c2c(F)cccc2Cl)c1C(=O)NNC(=O)C1CCN(Cc2cccc(F)c2)CC1	-4.7	0.4%	3	-5	0.4	2
CC(=O)c1c(C)[nH]c(C(=O)CSc2nc3ccc(C)cc3[nH]2)c1C	-2.4	-1.2%	-5	-13	-0.4	-10
COCCn1c(N2CCN(c3ccccc3)CC2)nc2c1c(=O)n(C)c(=O)n2C	1.3	-0.3%	-3	8	-0.6	-2
CCSC1=N/C(=C\c2ccc(C)s2)C(=O)S1	-3.6	2.6%	-4	12	1.5	-8
Cc1ccc(C(=O)N2CCN(c3cccc(Cl)c3)CC2)cc1C	-2.5	4.8%[38.3 µM]	3	-4	2.0	0
CC(=O)C[C@@H](O)CC(=O)[C@@H]1OC(=O)[C@@H](C)C/C=C\Cc2ccccc21	-2.3	-1.3%	6	-3	-0.7	8
COC(=O)c1ccc(NC(=O)CSc2ccccc2)cc1	-2.1	0.6%	7	-12	0.8	5
O=C(Cn1cnc(Cl)c1Cl)c1ccccc1	1.8	-0.9%	.	-8	0.4	4
CC(=O)Oc1cccc(C(=O)Nc2ccc(NC(=O)c3cccs3)cc2)c1	-3.1	1.4%	-3	-21	-0.6	-3
CCc1nc(SCC(=O)c2ccccc2)c2c(=O)n(C)c(=O)n(C)c2n1	1.6	4.6%	10	9	-1.0	4
COc1cccc(-c2cnc3c(NC(C)=O)cc(-c4ccncc4)cn23)c1	-7.5	3.4%	10	0	-0.5	6
O=C(c1ccoc1)N1CCN(c2cc(-c3cccnc3)nc3cc(-c4cccc(Cl)c4)nn23)CC1	1.1	3.4%	0	.	.	-1
N#CCCn1nc(-c2ccccc2)cc1Nc1ccccc1NC(=O)C(F)(F)F	0.8	2.7%	0	4	6.3	3
COc1ccc(C(NC(=O)c2ccc(F)cc2)c2ccccc2)cc1 (configuration not stated)	-0.7	5.5%	-6	-1	1.8	12
COc1ccc(O)c(C(=O)c2cnn(C(=O)c3cccc(S(=O)(=O)N4CCOCC4)c3)c2)c1	-3.4	-1.0%	3	-3	-0.6	5
CSc1nc2ccc(S(=O)(=O)NC3CCCCC3)cc2s1	3.4	6.1%	-3	-4	2.1	0
CC1(C)C(c2ccccc2)=[N+]([O-])CN1O	-2.3	-0.3%[38.3 µM]	3	1	0.1	-1
CCC1CCCCN1CCNS(=O)(=O)c1ccc2c(c1)oc(=O)n2C (configuration not stated)	-0.9	1.2%	-10	-6	-0.4	0
C#CCOCCOCCOCCNc1nc(N2CCN(C(=O)[C@H](CCC(=O)O)n3cc(C(N)Cc4ccc(O)cc4)nn3)CC2)nc(N2CCN(C(=O)[C@H](CCC(=O)O)n3cc(C(N)[C@H](C)CC)nn3)CC2)n1 (some centres not stated)	-1.8	0.6%	-9	-5	-0.6	-8
CCOC(=O)Cc1c(C)nc(Cc2ccc(OC(C)C)cc2)[nH]c1=O	-3.3	-0.8%	5	1	-0.3	0
CCOc1ccc(NC(=O)COc2ccc(C(=O)NCCc3ccccc3)cc2)cc1	-4.7	1.1%	3	2	-0.2	2
COc1cccc(CC(NC(C)=O)C(=O)NC2CCN(c3nnnn3-c3ccccc3)CC2)c1 (configuration not stated)	-4.0	-4.1%	13	-15	-0.8	5
COc1cc2c(cc1NC(=O)c1cccc([N+](=O)[O-])c1C)oc1ccccc12	9.3	7.4%[38.3 µM]	-15	9	-0.3	-14
O=C(CN1CCN(c2ccccc2F)CC1)NCc1ccccc1	4.4	-1.2%	-5	-14	0.1	-5
CCc1nc(C)cn1S(=O)(=O)c1ccc(Br)cc1	-2.6	0.5%	.	-11	.	7
Cc1cc(S(=O)(=O)N(Cc2ccc(F)cc2)CC2CCCO2)ccc1-n1cnnn1 (configuration not stated)	1.6	.	8	5	0.9	8
Cc1ccc(C(=O)N2CCN(c3ccc([N+](=O)[O-])c(N4CCOCC4)c3)CC2)cc1	1.5	2.0%	-1	-11	-1.1	-10
Cc1ccc(NCc2n[nH]c(=S)n2-c2cccc(Cl)c2)cc1	7.1	0.3%	3	-14	0.3	-5
Cn1c(C(=O)Nc2ccc(Cl)cc2)cc2cc(Cl)ccc21	6.4	5.8%	2	-3	0.6	3
CS(=O)(=O)NCCNc1cc(Cl)ccc1[N+](=O)[O-]	5.5	-1.7%	4	-7	-0.5	-3
OCCC1CN(Cc2ccc3ncccc3c2)CCN1Cc1ccccc1 (configuration not stated)	-1.0	0.0%	2	-11	-0.8	11
COc1ccc(CC(=O)N2CCN(c3ccccc3)CC2)cc1	-3.7	-0.6%	8	-1	0.3	1
CCCCCCn1c(N2CCN(c3ccccc3)CC2)nc2c1c(=O)n(C)c(=O)n2C	-1.8	3.9%[38.3 µM]	-6	-8	1.7	-10
CCN1CCN(S(=O)(=O)c2ccc3ccccc3c2)CC1	-3.3	?	1	-9	-0.2	-1
CC1OC(C(C)(C)C)Cc2[nH][nH]c(=O)c21 (configuration not stated)	.	-0.1%	-1	.	-0.5	-2
Cc1cc(C)n(-c2nc(NCCN(C)C)c3c4c(sc3n2)COC(C)(C)C4)n1	-7.2	0.5%	-7	-10	-0.6	10
CCc1cc2cc3c(cc2nc1SCC(=O)N1CCN(C(=O)c2ccco2)CC1)OCO3	-2.4	3.2%	-15	6	3.1	-3
CC(C)CNC(=S)Nc1ccc(S(N)(=O)=O)cc1	-3.5	1.1%	-5	1	0.3	0

Compound activity as filed in PubChem.
